High-throughput results from PubChem.
PMP22 txn: Cell-based coincidence reporter assay to measure PMP22 gene transcription in S16 Pmp22-F2sN cells - Primary screen; S16 Pmp22-F2sN Schwann cells (luciferase reporters placed in the Pmp22 gene), FLuc/NLuc coincidence luminescence, 24 h; Potency, µM (titrated, usually from 57.5 µM), for inactives: at the top dose activity change, negative = inhibition, actives largely listed as inhibitors; 43,000 compounds, 2% hits; active = clear falling dose curves in both reporters; inconclusive = both reporters move, but less clearly or upward; inactive = either reporter flat; the % is the NLuc reporter signal; also: % is scaled to controls: 0 for no effect and ±100 for the full control effect; some results filed as inactive show a strong effect at the top dose
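S16(c9) Schwann cells with FLuc/NLuc coincidence reporter in the Pmp22 3' UTR; compounds pin-transferred, 24 h at 37C. Dual-luciferase read: FLuc first, then NLuc after Stop&Glo, each 10 min at room temperature.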
HTT prom inh: Primary qHTS for Identification of Small Molecule Inhibitors of Huntingtin Promoter Activity; HEK293 HTT promoter firefly luciferase reporter (activity 0% = vehicle and -100% = no light), 24 h; Potency, µM (highest dose often 57.5 µM), inactives show at the highest dose activity change, negative = inhibition, actives largely listed as inhibitors; 48,000 compounds, 0.93% hits; active = well fitted inhibition curve with a large enough effect; inconclusive = small, poorly fitted or top-dose-only effect; inactive = no such curve, though single readings can be large or run the other way; also: nearly all actives have a fitted effect of over 50% in size
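HEK293 Fluc reporter, 2,500 cells/well, 24 h pre-culture; cpds up to 57.5 uM final, 24 h 37 degrees C; Dual-Glo, 10 min RT; normalized vehicle = 0%, zero RLU = -100%.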
Active calls of the source: *; ? = inconclusive; · = not tested or not shown; [ ] = remark or other dose. Potency is read from the fitted curve at half-maximal effect.

Each structure is followed by: PMP22 txn | HTT prom inh
- O=C(CN1C(=O)C2(SCC(=O)N2c2cccc(F)c2)c2ccccc21)NCc1ccccc1Cl (centres undefined)
  ? | -28.0%
- Cc1cc(C)c(NC(=O)Cn2cnc3c(oc4ccccc43)c2=O)c(C)c1
  ? | 54.8%[activator]
- O=C(NC1CCCC1)c1ccc2c(c1)N(Cc1ccccc1Cl)C(=O)c1ccccc1S2
  18.4% | -4.0%
- CSc1ccc(/C=C/c2nc3ccccc3n2S(=O)(=O)c2ccc(F)c(C)c2)cc1
  ? | ?
- Cc1ccccc1OCC(=O)Nc1ccccc1C(=O)OCc1cc(=O)n2ccsc2n1
  ? | 7.7%
- Cc1ccc(-c2nc(SCC(=O)NCc3ccco3)c3c(=O)n(C)c(=O)n(C)c3n2)cc1
  -16.3% | -2.6%
- COc1cc(OC)c(NC(=O)CSc2nc3ccncc3[nH]2)cc1Cl
  ? | ?
- O=C(NCCc1ccccc1)c1nnc(Cc2cccc(F)c2)o1
  -6.0% | -24.7%
- Cc1ccc(CCNC(=O)CN(c2cc(C)cc(C)c2)S(=O)(=O)c2c(C)noc2C)cc1
  -18.7% | -8.2%
- COc1ccccc1Cn1c(CNS(=O)(=O)c2ccc3c(c2)CCCC3)nc2cccnc21
  ? | -19.7%
- COc1ccc(-n2c(=O)c3c(c4cc(OC)ccc4n3C)n(Cc3cccc(C)c3)c2=O)cc1
  ? | -4.7%
- Cc1ccc(Cn2c(=O)n(-c3ccc(C)cc3)c(=O)c3c2c2cc(C)ccc2n3C)cc1
  -7.1% | -1.7%
- Cc1nn(CCCC(=O)Nc2cccc(F)c2)c(=O)c2c1sc1ccccc12
  -26.9% | -5.7%
- COc1ccccc1N1CCN(C(=O)Cn2c(=O)n3nc(-c4cccc(C)c4)nc3c3ccccc32)CC1
  -4.3% | -16.5%
- Cc1oc2ncn(C)c(=O)c2c1C(=O)N1CCN(c2ccccc2)CC1
  -12.4% | 28.4%

Going on with the list:
Each structure is followed by: PMP22 txn | HTT prom inh
- CC(=O)Nc1ccc(NC(=O)CCCc2nc(-c3ccc(C(C)(C)C)cc3)no2)cc1
  -0.6% | -88.7%
- CCOc1ccc(CNS(=O)(=O)c2ccc3[nH]c(=O)ccc3c2)cc1
  -5.5% | -24.4%
- CCc1ccc(NC(=O)C2CCCN(S(=O)(=O)c3ccc4c(c3)CCCN4C(C)=O)C2)cc1 (centres undefined)
  -19.8% | ?
- COc1ccc(CCNC(=O)CCCn2c(=O)c3ccccc3n(CC(=O)Nc3cccc(C)c3)c2=O)cc1OC
  -15.6% | -10.6%
- CCS(=O)(=O)c1nc(S(=O)(=O)c2ccc(C)cc2)c(NCc2ccc(Cl)cc2)s1
  -7.3% | -30.5%
- CCOc1ccccc1NS(=O)(=O)c1cc(-c2cnc(C3CC3)o2)ccc1C
  ? | ?
- Cc1ccn2cc(-c3ccc(C)c(NS(=O)(=O)c4ccc(Cl)cc4)c3)nc2c1
  ? | ?
- CC(=O)Nc1ccc(/C=N/NC(N)=S)cc1
  · | 8.5%
- Cc1cc(Cl)ccc1NC(=O)CCS(=O)(=O)c1cc2c(cc1C)NC(=O)CO2
  -10.2% | -21.1%
- COc1ccc(-c2csc3ncnc(Nc4ccccc4)c23)cc1
  -6.0% | -3.7%
- CCOc1cc(CN2CCN(S(=O)(=O)c3ccc(C)cc3)CC2)ccc1OC
  -19.8% | ?
- COc1ccc(NC(=O)c2c(NC(=O)COc3ccccc3)sc3c2CCC(C(C)(C)C)C3)cc1 (centres undefined)
  ? | -11.7%
- O=C(CSc1nc(-c2ccc(F)cc2)[nH]c1-c1ccc(F)cc1)Nc1ccc2c(c1)OCCO2
  ? | ?
- Cn1nnnc1SCCNCc1ccccc1OCc1ccc(Cl)cc1Cl
  ? | ?
- COC(=O)c1c(C)sc(-c2c(-c3cccc(OC)c3)[nH]c3c2c(=O)[nH]c(=O)n3C)c1O
  -9.1% | 0.0%

Next section
Each structure is followed by: PMP22 txn | HTT prom inh
- C#CC(C)(CC)NC(=O)Cn1nnc(-c2ccc(OCc3ccccc3F)cc2)n1 (centres undefined)
  5.2% | -3.8%
- CCCCC(=O)Nc1c(C(=O)N2CCN(c3ccccc3)CC2)oc2ccccc12
  10.4% | ?
- COCCNC(=O)C1CCCN(S(=O)(=O)c2ccc3c(ccn3C)c2)C1 (centres undefined)
  -15.7% | -4.7%
- Cc1cc(C)cc(N2CCn3c2nc2c3c(=O)n(CCc3ccccc3)c(=O)n2C)c1
  9.9% | 2.9%
- CCOC(=O)c1cc(OC(=O)c2ccc(OC)c(OC)c2)n(-c2ccccc2)n1
  ? | 10.5%
- CCOC(=O)c1c(NC(=O)/C=C/c2ccc(C)cc2)sc(C(C)=O)c1C
  -21.2% | -0.8%
- CCCN1Cc2cccc(C(=O)Nc3ccccc3C(=O)OC)c2C1=O
  18.2% | -23.9%
- CCOc1ccc(NC(=O)c2c(NCc3cccs3)sc3c2CCCCC3)cc1
  -79.5% | 6.2%
- Cc1cccc(NC(=O)N2CCc3c(sc4c3CCCC4)C2c2ccc(F)cc2)c1 (centres undefined)
  -14.3% | ?
- Cc1ccccc1CN1CCC(CNc2ncnc3onc(-c4ccc(Cl)cc4)c23)CC1
  ? | -0.2%
- O=C(NC1CCCCCC1)C1CCN(C(=O)N2CCOc3ccccc32)CC1
  -12.7% | 8.4%
- CCC1CN(C(=O)Nc2cccc3c2CCCC3)c2cc(Cl)ccc2O1 (centres undefined)
  -24.6% | -19.9%
- Nc1ccc(N2CCN(c3ncc(C(F)(F)F)cc3Cl)CC2)c(C(F)(F)F)c1
  ? | ?
- COc1ccc(CCN2C(=O)N(c3cccc(C)c3)C(=O)C2CC(=O)Nc2ccccc2)cc1OC (centres undefined)
  8.8% | -27.8%
- COc1ccc(S(=O)(=O)NCC(c2ccco2)N2CCOCC2)cc1 (centres undefined)
  -18.5% | -9.6%

Four entries from above, ordered by molar mass, ascending.
Each structure is followed by: PMP22 txn | HTT prom inh
- CCC1CN(C(=O)Nc2cccc3c2CCCC3)c2cc(Cl)ccc2O1 (centres undefined)
  -24.6% | -19.9%
- O=C(NC1CCCCCC1)C1CCN(C(=O)N2CCOc3ccccc32)CC1
  -12.7% | 8.4%
- CCOC(=O)c1cc(OC(=O)c2ccc(OC)c(OC)c2)n(-c2ccccc2)n1
  ? | 10.5%
- C#CC(C)(CC)NC(=O)Cn1nnc(-c2ccc(OCc3ccccc3F)cc2)n1 (centres undefined)
  5.2% | -3.8%

Further records
Each structure is followed by: PMP22 txn | HTT prom inh
- Cc1ccccc1NC(=O)CSc1nc2ccc(NC(=O)c3ccccc3)cc2s1
  1.1% | -3.4%
- Cc1cccc(N2C(=O)CSC23C(=O)N(Cc2cccc(F)c2)c2ccccc23)c1 (centres undefined)
  -19.2% | ?
- Cc1cc(C)c(/C=C/c2onc(C)c2S(=O)(=O)N2CCC(C(=O)N(C)Cc3ccccc3)CC2)c(C)c1
  ? | -27.5%
- COc1ccc(CNC(=O)C(CCSC)NS(=O)(=O)c2ccc3c(c2)oc(=O)n3C)cc1 (centres undefined)
  1.2% | -1.0%
- CCc1ccc(NC(=O)c2nnn(Cc3cccc(C(F)(F)F)c3)c2N)cc1
  -10.4% | -11.8%
- Cc1ccc(CN2C(=O)c3ccccc3Sc3ccc(C(=O)N4CCOCC4)cc32)cc1
  ? | -27.8%
- O=C(CSc1ccc2nc(-c3ccccc3)cn2n1)Nc1cccc(F)c1
  -9.1% | ?
- O=C(NCC(c1ccco1)S(=O)(=O)c1cccs1)c1ccccc1 (centres undefined)
  -41.4% | -8.5%
- CC(C)c1ccc(NC(=O)[C@H]2O[C@@H]3OC(C)(C)O[C@@H]3[C@H]3OC(C)(C)O[C@H]32)cc1
  -44.5% | 9.9%
- O=C(Cc1ccc(Cl)cc1)NCC(c1cccs1)S(=O)(=O)c1ccc(F)cc1 (centres undefined)
  -17.5% | -28.9%
- O=S(=O)(NCc1ccccc1Cl)c1ccc(N2CCCCS2(=O)=O)cc1
  ? | ?
- CCOc1cccc(CC(=O)NCc2ccc3c(c2)CCN3C(C)=O)c1OCC
  -2.0% | -6.3%
- COc1ccc(OC)c(NC(=O)CCc2c(C)nc3c(-c4ccccc4)c(C)nn3c2C)c1
  ? | -28.9%
- CCn1cc(C(=O)N2CCN(c3ccc(OC)cc3)CC2)c(=O)c2cc(S(=O)(=O)N3CCOCC3)ccc21
  -53.4% | -1.5%
- CCCCN(C)CCNC(=O)C1CCCN(S(=O)(=O)c2cccc3nsnc23)C1 (centres undefined)
  -30.2% | -15.3%

(cont.)
Each structure is followed by: PMP22 txn | HTT prom inh
- COc1ccc(-c2noc(CSc3nnc(-c4ccncc4)n3-c3ccc(C)c(C)c3)n2)cc1
  12.6µM* | -16.7%
- COc1ccc(OC)c(NC(=O)CSc2ccc(-c3cccs3)nn2)c1
  ? | -24.3%
- CCCN1Cc2cccc(C(=O)Nc3cc(C)cc(C)c3)c2C1=O
  ? | -6.5%
- COC(=O)c1cc(NC(=O)c2sc3ccccc3c2Cl)cc(C(=O)OC)c1
  ? | -2.0%
- CCCOC(=O)c1ccc(NC(=O)Cc2csc(C)n2)cc1
  1.6% | 4.1%
- C[N+](C)(C)CC(O)CC(=O)[O-] (centres undefined)
  · | 0.1%
- CC(=O)c1cc(-c2ccccc2)n(CCC(=O)NCCc2ccccc2)c1C
  -20.3% | -23.8%
- COc1ccc(-n2nnnc2C2CCN(S(=O)(=O)c3ccc(C(C)(C)C)cc3)CC2)cc1
  4.9% | -7.9%
- CCc1ccc(-n2nc3cc(C)c(NC(=O)c4cccc5ccccc45)cc3n2)cc1
  ? | -5.3%
- CCOc1ccccc1CNC(=O)c1ccc(CS(=O)Cc2cccc(Cl)c2)o1 (centres undefined)
  ? | -16.2%
- COc1cccc(NC(=O)N(Cc2c[nH]c3ccccc23)C2CCCCC2)c1
  -23.3% | 20.8%
- CCCCN(C)CCNC(=O)c1c(C)oc2ncnc(N3CCOCC3)c12
  -5.2% | 2.6%
- Cc1ccc(CCNC(=O)c2cccc(Nc3nc4ccccc4nc3-n3nc(C)cc3C)c2)cc1
  -13.5% | -9.3%
- COc1ccc(OC)c(CNC(=O)c2cc3cc4ccc(OC)cc4nc3o2)c1
  -1.4% | 3.1%
- COc1ccc(Nc2cc(C(=O)NC3CCC(C)CC3)c3ccccc3n2)cc1OC (centres undefined)
  -12.7% | 12.8%

(listing goes on)
Each structure is followed by: PMP22 txn | HTT prom inh
- CCOc1ccc(NC(=O)Cn2cc(C(=O)c3ccc(CC)cc3)c(=O)c3ccc(C)nc32)cc1
  ? | 3.1%
- O=C(c1ccc2c(c1)N(Cc1ccccc1)C(=O)c1ccccc1S2(=O)=O)N1CCOCC1
  -10.7% | -6.1%
- CCOc1ccc(-c2csc3ncnc(Nc4cccc(O)c4)c23)cc1
  -1.3% | ?
- CCCCCn1c(=O)[nH]c2cc(C(=O)Nc3ccc(OC)c(OC)c3)ccc2c1=O
  -28.9% | -6.6%
- C=C(C)C(=O)OCC(O)CO (centres undefined)
  · | 10.7%
- Cc1cc2c(cc3c(SCC(=O)Nc4cccc(Cl)c4C)nnc(C)n32)o1
  ? | -3.4%
- COc1ccc(OC)c(CN2CCN(S(=O)(=O)c3ccccc3)CC2)c1
  ? | -19.4%
- CC(=O)c1ccc(NC(=O)c2ccc(CN3C(=O)CCn4nc(C)cc43)cc2)cc1
  -2.0% | 18.5%
- COc1ccc(CCNC(=O)C(=O)NCC(c2cccs2)S(=O)(=O)c2ccccc2)cc1 (centres undefined)
  ? | ?
- Cc1ccc(C)c(NC(=O)CSc2nc(=O)n(CCN(C)C)c3c2CCC3)c1
  -2.0% | -2.1%
- CC(C)(C)C(=O)Cn1c(=O)n(-c2ccc(Cl)cc2)c(=O)c2c3c(sc21)CCCC3
  ? | -6.6%
- COc1ccc(Cl)cc1NC(=O)Cn1c(=O)c(-c2ccccc2NC(C)=O)nc2ccccc21
  -22.8% | -1.3%
- Cc1cccc(OCC(=O)Nc2c(C)ccc3nsnc23)c1C
  31.0% | -22.3%
- COc1ccc(NC(=O)C(Cc2ccccc2)n2cccc2)c(OC)c1 (centres undefined)
  -1.5% | -24.8%
- CCOc1ccc2nc(N3CCN(C(=O)c4ccc5c(c4)CCCC5)CC3)sc2c1
  ? | -26.6%

(cont.)
Each structure is followed by: PMP22 txn | HTT prom inh
- O=C1CN2Cc3c(ccc(Cl)c3Cl)N=C2N1
  · | -7.3%
- Cc1ncc(CO)c(CN)c1O
  · | -2.9%
- Cc1ccc(NC(=O)CSc2nc3c(c(=O)[nH]2)CCC3)cc1Cl
  4.5% | -20.3%
- O=C(Cn1cc(S(=O)(=O)Cc2cccc(Cl)c2)c2ccccc21)Nc1ccccc1Cl
  ? | ?
- Cc1ccc(S(=O)(=O)N2CCCc3cc(NS(=O)(=O)c4cc(C)ccc4C)ccc32)cc1
  ? | ?
- COc1ccc(S(=O)(=O)N2Cc3ccccc3CC2C(=O)Nc2ccc(C)cc2C)cc1OC (centres undefined)
  -9.9% | -25.0%
- Cc1ccc(C)c(CN2C(=O)C3(c4ccccc42)N(c2ccc(Cl)cc2)C(=O)CS3(=O)=O)c1 (centres undefined)
  -25.4% | -12.4%
- COc1cc(C2C(C(=O)OCC(C)C)=C(C)N=C3SCCC(=O)N32)ccc1OCc1ccccc1 (centres undefined)
  -5.8% | -15.4%
- Cc1cccc(OCc2ccc(-c3nc(C#N)c(NCCN(C)C)o3)o2)c1
  ? | -4.1%
